Screening data (PubChem)
HPGD inh – HPGD (human) dehydrogenase inhibition | P15428 | purified HPGD, NADH fluorescence kinetic, PGE2 substrate | Potency, µM, for inactives: at the top dose activity change, negative = inhibition, usual class: inhibitors | actives 4.3% (n = 150,000) | AID 894; active = well fitted inhibition curve with a large enough effect (not every such curve was filed as active); inconclusive = small, poorly fitted or top-dose-only effect, or another doubt; inactive = no such curve, though single readings can be large or run the other way;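 also: top concentration of the series not given in the record; plate controls included wells without enzyme; inactives centre near -10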
Target sequence (P15428 whole entry, looked up): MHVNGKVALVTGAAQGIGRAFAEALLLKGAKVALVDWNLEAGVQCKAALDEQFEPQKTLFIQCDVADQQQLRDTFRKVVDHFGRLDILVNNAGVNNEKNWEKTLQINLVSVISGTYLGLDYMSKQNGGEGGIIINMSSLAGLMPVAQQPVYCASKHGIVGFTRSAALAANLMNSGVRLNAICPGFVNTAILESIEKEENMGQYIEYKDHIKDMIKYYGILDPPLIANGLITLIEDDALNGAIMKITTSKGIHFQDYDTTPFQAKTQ
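NADH formation kinetics: reaction with 30 uM PGE2 and 1 mM NAD+ (final), 20 nM enzyme, Tris-HCl pH 8 with Tween 20, after 15 min compound preincubation at room temperature. Fluorescence change, last versus first of five reads.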
* hit, by the source's call; ? = inconclusive; & = joins results of further samples; [ ] = another dose, or the depositor's remark. % is scaled to controls: 0 for no effect and ±100 for the full control effect; potency is read from the fitted curve at half-maximal effect. A portion of the library; the hit share may differ from the screen's.

SMILES	HPGD inh
CC(C)CCNC(=O)c1nnc(Cc2ccc(Cl)cc2)o1	-3.9%
Cc1cc(OCC(=O)Nc2ccccc2F)nc(C(C)C)n1	0.9%
CCOC(=O)C(=NCCOC)NNc1cc(Cl)ccc1Cl	-17.5%
c1ccc2c(c1)OCC(CNc1ncnc3nc[nH]c13)O2 (configuration not stated)	-3.4%
CC(=Nc1ccc(O)cc1)c1sc2ccccc2c1O	-18.3%
CC(=O)c1c(C)[nH]c(C(=O)OCC(=O)Nc2cc(S(=O)(=O)N3CCCC3)ccc2Cl)c1C	-8.7%
O=C(O)C1CC(c2ccccc2F)=NO1 (configuration not stated)	-7.6%
COc1ccccc1-c1nnc2n1N=C(C(C)(C)C)CS2	-11.5%
COc1ccc(CNC(=O)C2(c3ccc(Cl)cc3)CC2)cc1	-4.8%
O=C(Nc1ccc2c(c1)CCC2)c1ccc(Br)o1	-23.9%
COc1cc(OC)c2c(-c3cccc(-c4cccc(C)c4)c3)cc(=O)oc2c1	?
COc1ccccc1N1CCN(C(=O)c2nn(-c3ccccc3OC)c(=O)c3ccccc23)CC1	3.0%
CN1C(=O)CC(N2CCC(c3nc4ccccc4s3)CC2)C1=O (configuration not stated)	-15.2%
CCn1c(SCc2nc3ccccc3s2)nnc1-c1cccs1	-13.1%
Cn1c(=O)oc2cc(S(=O)(=O)N3CCOCC3)ccc21	-2.2%
CCC(=O)O[C@@H]1[C@H](C)O[C@H](O[C@H]2[C@@H](N(C)C)[C@H](O)[C@@H](O[C@@H]3[C@@H](CC=O)C[C@@H](C)[C@@H](O)/C=C\C=C/C[C@@H](C)OC(=O)C[C@@H](OC(=O)CC)[C@H]3OC)O[C@H]2C)C[C@]1(C)O	-0.6%
C=CCn1c(Sc2nnc(C)s2)nc2c1c(=O)[nH]c(=O)n2C	-4.7%
CN1CC(=O)NC1=NC(=O)C12CC3CC(CC(C3)C1)C2	-9.9%
CCOC(=O)Cc1csc(NC(=O)NC2(C(F)(F)F)Oc3ccccc3O2)n1	35.5µM*
CC1(C)N([O-])C2=C(c3ccccc3C2=O)[N+](=O)C1(C)C	-13.8%
Cc1onc(-c2ccccc2Cl)c1C(=O)OCC(=O)c1ccccc1	?
COC(=O)c1ccc(Cl)c(NC(=O)CN2CCOCC2)c1	-1.2%
O=C(NC1(C(F)(F)F)N=C2SCCN2C1=O)c1cccnc1 (configuration not stated)	-9.0%
O=C(CSc1nnc(CNC(=O)c2cccs2)o1)c1ccc(Cl)cc1	-15.0%
Cc1ccc(S(=O)(=O)N2CCC(C(=O)NCc3ccccc3Cl)CC2)cc1	-0.1%

(cont.)
SMILES	HPGD inh
Cn1c(SCC(=O)NCc2ccc3c(c2)OCO3)nnc1-c1cccs1	-12.6%
CCOC(=O)c1[nH]c2cc3c(cc2c1NC(=O)CN1CCCCC1C)OCO3 (configuration not stated)	?
COc1ccc(-c2csc(NC(=O)COC(=O)Cc3ccc(Cl)cc3Cl)n2)cc1	-9.1%
CCOc1ccc(NC(=O)CSc2nc3cccnc3n2CCOC)cc1	-16.5%
COc1ccc(S(=O)(=O)n2oc(=O)cc2-c2ccccc2)cc1	-14.0%
Cn1c(/C(C#N)=N/O)nc2ccccc21	-5.2%
O=C(CSc1nnnn1Cc1ccccc1)N1CCN(c2ccccc2)CC1	-8.5%
CCOC(=O)CNC(=O)Cn1cnc2sc(C)c(S(=O)(=O)N3CCC(C)CC3)c2c1=O	-8.1%
C=CCc1cc(C=O)cc(OCC)c1OCc1ccc(Cl)cc1	-8.3%
O=C1OC2(CCCCC2)OC(=O)C1=CNc1nc2ccccc2s1	-10.2%
Cc1ccc(O)c(-c2cc3ccccc3[nH]2)c1	?
CC(=O)Nc1ccc(NS(=O)(=O)c2cc(C)sc2C)cc1	-17.2%
CCCCc1c(O)c2ccccc2[nH]c1=O	?
Cc1cccc(-c2nc3ccccc3c3nncn23)c1	-5.8%
Cc1ccc(NC(=O)c2noc3c2CCc2ccccc2-3)cc1	-13.2%
Cc1ccn2c(NC(=O)c3cccs3)c(-c3ccccc3)nc2c1	-8.9%
Cc1cc(C)cc(NC(=O)Cn2ncn3c(cc4ccccc43)c2=O)c1	-13.8%
Cc1ccccc1OCC(=O)Nc1ccccc1-c1ccccc1	-15.1%
COc1ccc(Nc2cc(C)nc3ncnn23)c(OC)c1	15.8µM*
Nc1cc(=O)nc(SCC(=O)Nc2cccc3ccccc23)n1CCc1ccccc1	-3.1%
Cc1nnc(SCC(=O)NC(C)c2ccccc2)[nH]c1=O (configuration not stated)	-20.6%
COc1ccc(CCNC(=O)Cc2nn(C)c(=O)c3ccccc23)cc1OC	0.7%
CCCc1nn(C)c(C(=O)Nc2ccc3ccccc3c2)c1Cl	-12.7%
Cc1ccc2nc(NC(=O)c3ccc(NS(=O)(=O)c4cccs4)cc3)sc2c1	?
COc1ccccc1N(CC(=O)NCc1ccccn1)S(C)(=O)=O	?

Molecules listed so far that have a CF3 group (2):
SMILES	HPGD inh
CCOC(=O)Cc1csc(NC(=O)NC2(C(F)(F)F)Oc3ccccc3O2)n1	35.5µM*
O=C(NC1(C(F)(F)F)N=C2SCCN2C1=O)c1cccnc1 (configuration not stated)	-9.0%

Structures above marked active in HPGD inh:
SMILES	HPGD inh
CCOC(=O)Cc1csc(NC(=O)NC2(C(F)(F)F)Oc3ccccc3O2)n1	35.5µM*
COc1ccc(Nc2cc(C)nc3ncnn23)c(OC)c1	15.8µM*

Exported as comma-separated lines: 3 of the compounds above.
molecule,HPGD inh
O=C(CSc1nnnn1Cc1ccccc1)N1CCN(c2ccccc2)CC1,-8.5%
Cc1ccn2c(NC(=O)c3cccs3)c(-c3ccccc3)nc2c1,-8.9%
CC(=O)c1c(C)[nH]c(C(=O)OCC(=O)Nc2cc(S(=O)(=O)N3CCCC3)ccc2Cl)c1C,-8.7%

The main list resumes; the 4 compounds before the break are reprinted first.
SMILES	HPGD inh
COc1ccc(CCNC(=O)Cc2nn(C)c(=O)c3ccccc23)cc1OC	0.7%
CCCc1nn(C)c(C(=O)Nc2ccc3ccccc3c2)c1Cl	-12.7%
Cc1ccc2nc(NC(=O)c3ccc(NS(=O)(=O)c4cccs4)cc3)sc2c1	?
COc1ccccc1N(CC(=O)NCc1ccccn1)S(C)(=O)=O	?
COc1ccc(NC(=O)c2cccc(Oc3ccc([N+](=O)[O-])cc3Cl)c2)cc1	-4.4%
O=c1[nH]c2cc(C(F)(F)F)ccc2n1-c1cc(C(F)(F)F)ccc1O	-9.0%
COC(=O)[C@@H]1C[C@@]2(O)[C@H](O)[C@H](O)[C@H](O)C[C@H]2N1CC1CCCCC1	-11.6%
CCOC(=O)C1=C(O)/C(=C\c2sccc2C)N=C1C	-25.1%
CC(=O)Nc1ccc(N2C(C(C)=O)=NN(c3ccc(Cl)cc3)C2c2sccc2C)cc1 (configuration not stated)	-17.6%
CCCc1cc(=O)[nH]c(SCc2cccc(C)c2)n1	14.1µM*
COc1ccc(-c2[nH]ncc2-c2ccc3c(c2)OCCO3)c(O)c1	-13.1%
CC(=O)O[C@@H]1[C@H](OC(=O)CC(C)C)c2c(ccc3ccc(=O)oc23)OC1(C)C	-14.0%
O=C(CCC(=O)c1cccs1)OCC(=O)c1ccc(Cl)s1	?
COc1cc(N)c(Cl)cc1C(=O)NC1CCN(Cc2ccccc2)CC1	-4.5%&-4.0%
O=C(NC1CCCc2ccccc21)C1CCN(S(=O)(=O)c2cnc[nH]2)CC1 (configuration not stated)	-10.6%
COC(=O)Cn1c(C)c(C#N)c2ccccc21	-9.1%
O=C(O)CCSCC(=O)Nc1c(C(=O)C2CC2)oc2ccccc12	-6.7%
COc1cc2c(cc1OC)C1(Nc3c-2c(C)nn3-c2ccccc2)C(=O)Nc2ccccc21 (configuration not stated)	-5.5%
COc1ccc(NC(=O)CSc2nnc(-c3ccncc3)n2CC2CCCO2)c(OC)c1 (configuration not stated)	-10.7%
COc1ccc(OC)c(NC(=O)c2ccc(CN3CCOCC3)cc2)c1	-3.1%
COCCOc1ccc(C(F)(F)F)cc1NC(=O)c1ccccc1	-3.8%
COC(=O)c1n[nH]nc1-c1ccccc1	0.6%
Cn1ccnc1Sc1nc(Nc2cccc(Cl)c2)nc(N2CCOCC2)n1	?
COc1cc(OC)c(NC(=S)Nc2cccc(C(C)=O)c2)cc1Cl	-11.6%
CCOC(=O)CSCC(=O)Nc1nnc(-c2cccc([N+](=O)[O-])c2)s1	-14.1%
CC(C)c1nnc(NC(=O)Cc2ccc(Br)cc2)s1	-7.8%
COc1ccc(OCCCC(=O)Nc2cc([N+](=O)[O-])ccc2C)cc1	-6.5%
O=C1/C(=C/c2cccnc2)SC(=S)N1c1ccc(F)cc1	-5.7%
COc1ccc(OC)c(/C=N\NC(=O)CSc2nnc(CCCc3ccc(OC)c(C)c3)o2)c1	?

More results.
SMILES	HPGD inh
c1ccc2c3nnc4n(c-3nc2c1)CCCS4	-22.1%
Cc1cc(C)n2nc(C(=O)OCC(=O)Nc3ccc4c(c3)OCO4)nc2n1	-15.2%
CCc1ccccc1NC(=O)CN(C)C(=O)CSc1nn(-c2ccccc2)c(=S)s1	-4.7%
COc1cccc2c(=O)n(CC(=O)Nc3ccccc3F)ccc12	?
O=C(Nc1nccs1)C1CCCN1S(=O)(=O)c1ccc(F)cc1 (configuration not stated)	-8.0%
CN(C)c1ccc(C(=O)Nc2nc3c(s2)CCCC3)cc1	?
COC(=O)CN1C(=O)S/C(=C/c2ccc(N3CCCCC3)o2)C1=O	-11.4%
Oc1ccc(N=Nc2nc(-c3ccccc3)c(-c3ccccc3)[nH]2)cc1	-6.4%
COc1ccc(C2CC(c3cccs3)=Nc3ccccc3S2)cc1 (configuration not stated)	-22.0%
COc1ccc(C(=O)Oc2cccc(/C=N/NC(N)=S)c2)cc1	-18.0%
Cc1ccc(-n2c(C)csc2=N)cc1	-19.1%
CC(NC(=O)/C(C#N)=C/c1ccc(C(=O)O)cc1)c1ccccc1 (configuration not stated)	-10.2%
CCOc1cc(/C=N\NC(=O)c2ccc(NC(=O)CC)cc2)ccc1OC(=O)c1ccccc1	-4.3%
CCCCCOC(=O)CSc1nc2c(c(=O)[nH]c(=O)n2C)n1Cc1ccc(Cl)cc1	?
C[C@@H](CNC1CCCCC1)OC(=O)c1ccccc1	-8.3%
CC(C)(C)c1ccc(S(=O)(=O)NCc2ccc(C(=O)N3CCCC3)cc2)cc1	?
O=C(CSc1nc2c(c(C(F)(F)F)n1)CCc1ccccc1-2)NCc1ccc(F)cc1	-8.4%
Cc1ccc(S(=O)(=O)N2CCC(C(=O)Nc3nnc(COc4ccccc4)s3)CC2)cc1	-6.0%
CCOC(=O)CSc1nnc(-c2c[nH]c3ccccc23)n1CC	-6.3%
C/C(=N/NC(=O)c1ccncc1)c1cc2ccc(O)cc2oc1=O	?
CC[C@H](NC(=O)c1c(C)c(-c2ccccc2)nc2ccccc12)c1ccccc1	-29.6%&-8.9%
Cc1nnc2n1N=CC=C(c1ccccc1)S2	-27.4%
O=C(CC1SC(=Nc2ccccc2)N(CCCCO)C1=O)NCc1ccccc1 (configuration not stated)	2.7%
COc1ccc(N=C2SC(CC(=O)Nc3ccc(F)cc3)C(=O)N2Cc2ccco2)cc1 (configuration not stated)	-13.2%
Cc1cccc(NC(=O)c2sc(C)nc2C)c1	-11.6%

(cont.)
SMILES	HPGD inh
O=C(NNC(=O)c1sc2ccccc2c1Cl)Nc1ccc(Cl)cc1	-7.7%
CCN1CCN(C(=O)N[C@H](C(=O)N[C@@H]2C(=O)N3C(C(=O)O)=C(CSc4nnnn4C)CS[C@@H]23)c2ccc(O)cc2)C(=O)C1=O	-8.7%
Oc1ccc(CNc2ccccc2O)cc1	-22.9%
CCn1nnnc1SCC(=O)c1ccc(C)cc1	-14.3%
Cc1cc(=O)[nH]c(N/N=C/c2ccc(Br)s2)n1	-8.8%
CN(C)Cc1ccccc1-c1ccc2ncnc(NC3CC3)c2c1	-28.0%
CCCCCCNS(=O)(=O)c1nc2nc(C)cc(C)n2n1	-3.1%
COc1ccc(Br)cc1C(=O)Nc1ccc(N2CCN(S(C)(=O)=O)CC2)cc1	36.3%[activator]
CCn1c(SCC(=O)Nc2ccc(OC)cc2)nnc1-c1ccco1	-2.7%
Clc1ccc2nc(-c3ccccn3)c(Nc3ccc4c(c3)OCO4)n2c1	-4.5%
Cc1nc2c3ccccc3n(CC#N)c(=O)n2n1	-11.6%
CCc1ccc(N(C(=O)C(F)(F)F)C(C(=O)NC2CCCCC2)c2ccncc2)cc1 (configuration not stated)	3.9%
CCOC(=O)C1CSC(CC(=O)Nc2ccc(OCC)cc2)C(=O)N1 (configuration not stated)	-0.8%
COc1ccccc1-c1nn2c(-c3ccccc3Cl)nnc2s1	-11.2%
CN1CCN(C(=O)CCNC(=O)Cn2ccc3ccccc3c2=O)CC1	-11.4%
O=C(c1cc(-c2ccco2)on1)N1CCN(c2ccccc2)CC1	-18.2%
COc1ccccc1CNC(=O)c1cccc(-c2ccc(C)c3ccccc23)n1	-26.4%
Cc1ccc2oc(-c3ccc(C)c(NC(=S)NC(=O)c4cccs4)c3)nc2c1	-1.5%
Cc1oc(C(C)(C)C)c(CN2CCCC2)c1C(=O)O	-2.1%
O=C(NC(=S)Nc1cc([N+](=O)[O-])ccc1Cl)c1ccccc1	?
O=C1CCCCCN1Cc1ccccc1	-15.3%
Cc1sc(NC(=O)c2cccs2)c(C(N)=O)c1C	25.1µM*
CCOc1ccccc1NC(=O)CSc1nnnn1-c1ccc(C(=O)OC)cc1	-20.6%
O=C(Nc1ccc(N2CCOCC2)c(Cl)c1)c1ncn[nH]1	-9.0%
O=C(Nc1cccc2ccccc12)c1ccc(OC(=S)N2CCOCC2)cc1	-16.0%
Cc1nc(CCNC(=O)c2cccs2)cs1	-15.6%
C=CCOC(=O)C(C#N)c1nc2ccccc2nc1N1CCN(c2ccccc2OC)CC1 (configuration not stated)	-15.5%
Cc1nc(N)sc1C(=O)N/N=C/c1ccco1	-5.6%
CC(C)CCNC(=O)C(C)N(C(=O)Cn1nnc(-c2ccc(F)cc2)n1)C1CCCC1 (configuration not stated)	-8.2%
